# N370S GC: inhibits or activates N370S mutant glucocerebrosidase. N370S GC spleen homogenate, 4MU-glucoside fluorescence. 0.092% of 330,000 active. P04062. Potency, µM (highest dose often 59.4 µM), for the others: at the top dose activity change, negative = inhibition, usual class: inhibitors;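 note: 0% = full enzyme activity and -100% = no enzyme basal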
# FEN1 inhibitor: blocks human flap endonuclease 1 | P39748 | Recombinant FEN1 flap cleavage, fluorescence, 15 min | Potency, µM (titrated, usually from 114 µM), without a hit: at the top dose activity change, negative = inhibition, hits mostly inhibitors | 0.35% of 390,000 active; note: nearly all actives have a fitted effect of over 65% in size
# Target sequence (P39748 whole entry, looked up): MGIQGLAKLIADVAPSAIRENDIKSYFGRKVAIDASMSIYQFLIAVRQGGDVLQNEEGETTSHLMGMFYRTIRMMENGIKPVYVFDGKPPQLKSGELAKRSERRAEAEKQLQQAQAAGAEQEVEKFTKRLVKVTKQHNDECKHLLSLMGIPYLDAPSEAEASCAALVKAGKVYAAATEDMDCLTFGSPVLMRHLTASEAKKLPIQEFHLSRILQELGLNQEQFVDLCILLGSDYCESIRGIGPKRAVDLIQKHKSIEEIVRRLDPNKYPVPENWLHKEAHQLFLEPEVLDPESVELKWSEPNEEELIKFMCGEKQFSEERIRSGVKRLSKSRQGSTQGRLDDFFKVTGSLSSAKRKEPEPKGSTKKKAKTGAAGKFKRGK
#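 Read-out was taken twice, immediately and after 15 min, following addition of 50 nM substrate to 10 nM FEN1 that had sat with test compound for 15 min at room temperature. Curves came from a four-parameter Hill model.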
# * marks the source's active call; other numbers are inactive results; ? = inconclusive; · = no result given; & = joins results of further samples; [ ] = dose if it differs, or a comment. Calls come from the whole dose curve; as a rule, active = well fitted curve in the direction sought with a large enough effect; inconclusive = small, poorly fitted or top-dose-only effect, or another doubt; inactive = no such curve, though single readings can be large; an effect the other way counts as inactive or inconclusive. Unless noted, % is set by controls: 0 for no effect and ±100 for the full control effect; potency is the fitted concentration of half-maximal effect. The list is partial, and most or all hits are left out here.
No.	mol	N370S GC	FEN1 inhibitor
1	CCOc1ccc(NC(=O)C2CCCN(C(=O)NCc3ccccc3)C2)cc1 (centres undefined)	-1.3%	9.3%
2	O=C(c1cc(-c2ccc(Cl)cc2Cl)on1)N1CCCCCC1	-1.9%	-9.3%
3	CC(=O)NN1C(=O)/C(=C/c2ccc(C(C)C)cc2)SC1=S	10.4%	5.9%
4	COc1ccc(OC)c(Nc2ncnc3c2cnn3-c2cccc(Cl)c2)c1	·	-22.2%
5	CN1CCCN=C1/C=C/c1cccs1	-6.2%	0.6%
6	S=C(NCc1ccccc1)NCc1ccccn1	11.4%	3.1%
7	CCCC[C@@H]1C[C@H]1C(NC(=O)c1ccco1)c1ccc(-c2ccccc2)cc1 (some centres undefined)	-1.3%	·
8	Cc1ccccc1NC1=C/C(=N\S(=O)(=O)c2cccs2)c2ccccc2C1=O	25.3%	-2.5%
9	COc1ccc(N2CCN(C(=O)CN3C(=O)NC4(CCCCCC4)C3=O)CC2)cc1	·	-1.2%
10	CCOC(=O)c1cnc(-n2nc(C)cc2C)nc1NNc1cc(C)nc(-c2ccccc2)n1	?	-7.8%
11	COC(=O)c1ccc(Cn2cnc3ccccc3c2=O)cc1	8.9%	-8.5%
12	Cc1nc(Cl)c2c(n1)NC1=C(O2)C(=O)CCC1	2.2%	-11.0%
13	COc1ccc(C2C=C(c3ccccc3)Nc3nc(NC(=O)c4ccc(C)cc4)nn32)cc1 (centres undefined)	·	-10.6%
14	CCOC(=O)C1=C(C)NC(C)=C(C(=O)OCC)C1C(=O)OCC(=O)NC1(C#N)CCCCC1	?	0.2%
15	Cc1ccccc1-c1nnc(CS(=O)(=O)c2ccccc2)o1	2.4%	-6.2%
16	O=C(Nc1ccccc1)C(O)C(O)C(=O)Nc1ccccc1 (centres undefined)	-3.9%	-8.9%
17	CC(NC(=O)c1ccccc1F)c1ccccc1 (centres undefined)	-10.4%	-4.5%
18	COc1ccc(NC(=S)N2CCc3ccccc3C2)cc1OC	-13.4%	-16.2%
19	CCN(CC)CCN(C(=O)Cn1nnc(-c2ccc(OC)c(OC)c2)n1)C(C(=O)NC1CCCC1)c1ccc(F)cc1 (centres undefined)	4.2%	-2.3%
20	CCOC(=O)c1oc2nc(C)c3c(c2c1N)CC(C)(C)OC3	7.2%	-3.7%
21	Cc1ccc(OCC2Cn3c(nc4c3c(=O)[nH]c(=O)n4C)O2)cc1 (centres undefined)	2.1%	-2.8%
22	c1coc(CNCCCN2CCOCC2)c1	-0.5%	7.3%
23	Cc1cc(NC(=O)CCC(=O)N(c2cccc(F)c2)C(C(=O)NC2CCCC2)c2ccccc2)no1 (centres undefined)	-11.6%	1.8%
24	CCCCSc1cc(=O)[nH]c(N)n1	-6.9%	-1.7%
25	COc1ccccc1CCNC(=O)C(=O)NCC1CCCN1S(=O)(=O)c1ccccc1 (centres undefined)	2.4%	-4.2%
26	CCC(=O)NNc1nc2c(C)cccc2s1	-1.8%	-12.3%
27	Cc1ccc(C)c(CN2C(=O)c3ccccc3S(=O)c3ccc(C(=O)NCc4ccccc4)cc32)c1 (centres undefined)	·	7.7%
28	COc1cccc(NC(=O)C(=O)N/N=C/c2cc(C)n(-c3ccc(Cl)c(Cl)c3)c2C)c1	-0.1%	-19.0%
29	CC(=O)c1ccc(NC(=O)CSc2ccc(-c3ccc(-n4cccn4)cc3)nn2)cc1	-3.0%	-1.7%
30	CCOC(=O)/C=C/C(=O)OCC(=O)NCc1ccccc1	-1.5%	-9.5%

# Continuation:
No.	mol	N370S GC	FEN1 inhibitor
31	COc1cccc(CNC(=O)COC(=O)C23CC4CC(CC(Cl)(C4)C2)C3)c1	·	-7.5%
32	CC12CNCC(C)(CN(C3(O)C(=O)Nc4ccc(Br)cc43)C1)C2=O (centres undefined)	9.8%	-8.3%
33	Cc1ccc(-n2ncc3c(NCCCN4CCOCC4)ncnc32)c(C)c1	1.1%	1.8%
34	COc1ccccc1CC(=O)N1CCCC1	-2.6%	1.7%
35	CCCCn1cnc2cc(NCc3ccc(OCC)cc3)ccc21	·	-20.8%
36	CCOc1cccc2sc(N(CCCN(C)C)C(=O)c3ccc(S(=O)(=O)N(C)Cc4ccccc4)cc3)nc12	?	-8.8%
37	CCCCC1=CC2=CC(=O)C(C)(OC(=O)CC)C(=O)C2=CN1CCN1CCOCC1 (centres undefined)	-2.6%[12.8 µM]	7.0%
38	CN(C)CC/C=C1/c2ccccc2Sc2c(O)cc(Cl)cc21	6.5%	-19.6%
39	O=C(NCc1ccccc1)N(Cc1nc2ccccc2c(=O)[nH]1)C1CCCC1	15.9%	-2.7%
40	CCCN(Cc1cc2cc(C)ccc2[nH]c1=O)S(C)(=O)=O	6.7%	-4.1%
41	CCOC(=O)Nc1nnc(-c2ccc(OC)c(OC)c2)s1	1.2%	-4.6%
42	COC(=O)c1sccc1S(=O)(=O)N(CC(=O)NCc1ccc(F)cc1)c1ccccc1	·	18.7%
43	Cc1ccc(S(=O)(=O)N2CCC(C(=O)Nc3ccc4c(c3)COC4=O)CC2)cc1	-0.9%	5.5%
44	O=C(NCc1ccc(Cl)cc1)C(=O)NCC1OCCN1C(=O)c1cccs1 (centres undefined)	1.0%	3.8%
45	CCC(=O)N1CCc2cc(Br)cc(S(=O)(=O)NCCc3ccc(C)cc3)c21	·	-3.6%
46	c1ccc(Cn2cnc3ccccc32)cc1	-17.1%	-6.9%
47	Cc1ncc(CN2CCN(Cc3ccccc3)C(CCO)C2)s1 (centres undefined)	3.2%	16.5%
48	COC(=O)c1[nH]c2cc(OC)ccc2c1N	-10.7%	-4.4%
49	O=C(CCC(=O)c1cccs1)OCc1nc2ccccc2s1	·	-5.5%
50	NS(=O)(=O)c1ccc(CCNC(=O)c2ccc(C(=O)c3ccccc3)cc2)cc1	-5.4%	2.1%
51	CCCC1=Nc2cc(C(=O)NCCN3CCOCC3)ccc2Sc2ccc(C)cc21	?	16.4%
52	CC(=O)NC(CC(=O)OCC(=O)c1c(N)n(CC(C)C)c(=O)n(C)c1=O)c1ccccc1 (centres undefined)	-1.4%	3.9%
53	CC(=O)c1ccc(OC(=O)N(c2ccccc2)c2ccccc2)cc1	1.5%	-18.8%
54	CC(C)OCc1ccc(C(=O)N2CCN(CC(=O)N3CCCC3)CC2)cc1	·	-3.2%
55	COc1ccc(OC)c(C(=O)c2c(N)c(-c3nc(-c4ccc(C)c(C)c4)cs3)c3ccccn23)c1	·	-12.3%
56	O=C(NC1CCCC1)C1CCN(S(=O)(=O)c2cccc3cccnc23)CC1	·	-1.8%
57	Cc1ccc(CNC(=O)/C(C#N)=C\c2ccc(N(C)C)cc2)cc1	18.9%	·
58	c1ccc(Cc2noc(CN3CCCC(CN4CCOCC4)C3)n2)cc1 (centres undefined)	21.1%	-0.6%
59	Cc1ccc(S(=O)(=O)c2nc(S(C)(=O)=O)sc2NCC2CCCO2)cc1 (centres undefined)	2.1%	-0.9%
60	COc1cccc(Oc2ccc3nnc(C(F)(F)F)n3n2)c1	-1.7%	15.7%

# Records 58–60, quoted:
No.	mol	N370S GC	FEN1 inhibitor
58	c1ccc(Cc2noc(CN3CCCC(CN4CCOCC4)C3)n2)cc1 (centres undefined)	21.1%	-0.6%
59	Cc1ccc(S(=O)(=O)c2nc(S(C)(=O)=O)sc2NCC2CCCO2)cc1 (centres undefined)	2.1%	-0.9%
60	COc1cccc(Oc2ccc3nnc(C(F)(F)F)n3n2)c1	-1.7%	15.7%

# (list continues)
No.	mol	N370S GC	FEN1 inhibitor
61	CCOC(=O)Cc1csc(NC(=O)C(C)Oc2ccc3c(C)cc(=O)oc3c2)n1 (centres undefined)	-10.9%	8.6%
62	Cc1sc(NC(=O)COc2ccccc2)c(C#N)c1-c1ccccc1	9.3%	1.5%
63	COc1ccc(-c2csc(N3CCC(C(N)=O)(N4CCCCC4)CC3)n2)cc1	-3.3%	-4.4%
64	CCOC(=O)c1cn(C2CC2)c2c(F)c(F)c(F)cc2c1=O	5.2%	1.4%
65	COCCOC(=O)c1nccnc1C(=O)Nc1ccc(S(=O)(=O)N2CCOCC2)cc1	-4.9%	-3.0%
66	Cc1ccc(-n2c(=O)[nH]cc(C(=O)Nc3ccc4c(c3)OCCO4)c2=O)cc1	-12.4%	2.2%
67	CCC(C)C(=O)Nc1nc2ccc(S(C)(=O)=O)cc2s1 (centres undefined)	4.8%	-3.3%
68	COc1ccc(C2/C(=C(\O)c3cc(C)ccc3C)C(=O)C(=O)N2CCN(C)C)cc1OC (centres undefined)	-6.4%	11.5%
69	CCOC(=O)CC(NC(=O)Cc1ccccc1)c1ccccc1Cl (centres undefined)	2.5%	-0.2%
70	COc1ccc(NS(=O)(=O)c2cccc(C(=O)NNC(=O)c3cncc(Br)c3)c2)cc1	-13.1%	-0.5%
71	COc1ccc(C2Nc3ccccc3C(=O)N2c2ccc(Cl)cc2)cc1Cn1cc([N+](=O)[O-])cn1 (centres undefined)	-2.4%	10.8%
72	CC1(C(=O)N/N=C/c2cc3c(cc2Br)OCO3)CC1(Br)Br (centres undefined)	29.0%	-15.5%
73	CCS(=O)(=O)c1ccc2oc(Nc3cc(Cl)ccc3OC)nc2c1	-5.6%	4.5%
74	COc1ccc(C2Nc3ccccc3C(=O)N2Cc2ccccc2)cc1CN1CCOCC1 (centres undefined)	5.0%	-9.8%
75	Cc1cc(C)cc(NC(=O)CCc2c(C)nn(-c3ccc(N4CCOCC4)nn3)c2C)c1	-11.8%	-11.1%
76	Nc1nc(-c2c[nH]c3ccccc23)cs1	-17.1%	-8.3%
77	COc1ccc(C(=O)Oc2c(Sc3ccc(C)cc3)c(C)nn2C(C)(C)C)c(OC)c1	·	-30.0%
78	COC(=O)C1=C(C)NC(=O)/C1=C\c1cc(C)n(-c2ccccc2C)c1C	-8.3%	-20.9%
79	CCCNC(=O)c1ccc(C2SCC(=O)N2Cc2ccccc2)cc1 (centres undefined)	5.6%	-3.0%
80	Cc1ccc(S(=O)(=O)N(C)C)cc1NC(=O)C(C)Sc1ccccc1 (centres undefined)	4.4%	-4.4%
81	CCOC(=O)c1c(N)nn(C(=O)C(C)C)c1-c1ccc(OC)cc1	-6.0%	1.5%
82	CCOC(=O)Nc1nn(-c2ccc(C)cc2)c(=O)c(C#N)c1C	2.9%	6.9%
83	CCCOc1ccc(N2C(=O)CC(N3CCN(C(=O)c4ccco4)CC3)C2=O)cc1 (centres undefined)	-0.5%	-3.8%
84	Nc1ncnc2c1ncn2[C@@H]1O[C@H](CN2CCCS2(=O)=O)[C@@H](O)[C@H]1O	·	-0.6%
85	O=C(O)CCCCC1CCSS1 (centres undefined)	4.2%&-0.7%&11.8%&2.3%	-10.0%
86	COc1ccc(-c2ccc(SCC(=O)NC3CCCCC3)nn2)cc1	-2.7%	8.0%
87	COc1ccc(/C=C/C(=O)NCC(=O)N/N=C(/C)c2ccco2)cc1	-19.9%	15.4%
88	CN(c1ccccc1)P(=O)(N(C)c1ccccc1)N(C)c1ccccc1	-8.0%	5.6%
89	COCCNC(=O)CSc1nnc(NC(=O)Nc2ccc(C)cc2)s1	·	-8.4%
90	Cc1ccc(Nc2c3c(nc4nc(-c5cccs5)nn24)CCCC3)cc1F	·	-3.3%

# More compounds.
No.	mol	N370S GC	FEN1 inhibitor
91	COc1ccc(C2SCCN2S(=O)(=O)c2ccc(NC(C)=O)cc2)cc1 (centres undefined)	-6.6%	-4.1%
92	CCc1ccc(-c2nc3ccc(Br)cc3c(C(=O)O)c2C)s1	?	-4.5%&-1.3%
93	CCOC(=O)c1cc(NC(=O)c2ccc(C)cc2)c(=O)oc1C(F)(F)F	-17.2%	-13.5%
94	CC(C)CSc1nnc2c(n1)[nH]c1ccccc12	9.9%	-7.6%
95	COc1ccc(C(=O)N2CCCCCC2)cc1S(=O)(=O)N1CCOCC1	-1.6%	-2.9%
96	CC(NC(=O)c1cc(=O)[nH]c2ccc(Br)cc12)c1ccccc1 (centres undefined)	-1.8%	·
97	Cc1cccc(-c2noc(CCCC(=O)Nc3cccnc3)n2)c1	-4.2%	-1.3%
98	Cc1ccc(OCCC(=O)O)cc1	-2.1%	-7.4%
99	O=C(N/N=C/C=C/c1ccc([N+](=O)[O-])cc1)C1COc2ccccc2O1 (centres undefined)	5.6%	-12.0%
100	Fc1ccccc1CNc1ccc(Cl)c(Cl)c1	5.0%	-18.9%
101	O=C(CNS(=O)(=O)c1cccs1)N1CCCCC1	-10.5%	0.5%
102	CCOC(=O)C1=C(O)/C(=C/c2ccccn2)SC1=Nc1ccc(Cl)cc1	4.3%	-13.9%
103	CCOc1ccc(C(=O)/C=C/c2ccc(OC)c(OC)c2)cc1	14.1%	-22.6%
104	COc1cccc(NC(=O)CCCNC(=O)Cn2cnc3sc(C)c(C)c3c2=O)c1	6.4%	10.0%
105	CCN1CCc2c(sc(NC(=O)c3ccc(S(=O)(=O)N4CCCC4)cc3)c2C(=O)NC)C1	-24.0%	-11.0%
106	COc1ccc(C(=O)O/N=C/c2c(C(F)(F)F)nn(C)c2SCc2ccccc2Cl)cc1	8.2%	-17.6%
107	O=C(c1cc2ccccc2oc1=O)N1CCN(CCc2ccccc2)CC1	-0.4%	-2.8%
108	CC(=O)OC1CCC2(C)C3=C(CCC2C1(C)C)[C@@]1(C)CCC(C(C)CCC=C(C)C)[C@@]1(C)CC3 (some centres undefined)	7.6%	·
109	C/C=C(\C)C(=O)OC1c2c(ccc3ccc(=O)oc23)OC(C)(C)C1OC(C)=O (centres undefined)	3.4%&1.2%	-19.7%
110	Cc1cccc(C(=O)NNC(=S)NC(=O)c2cccs2)c1	2.9%	-6.1%
111	CC1CCCC(C)N1CCCNC(=O)c1ccc2c(c1)NC(=O)c1ccccc1S2 (centres undefined)	-0.6%	16.4%
